# Screens (PubChem BioAssay)
# Sfp inh: qHTS Assay for Inhibitors of Bacillus subtilis Sfp phosphopantetheinyl transferase (PPTase); 4'-phosphopantetheinyl transferase ffp (Bacillus subtilis), Q9F4F7; Biochemical Sfp PPTase activity, qHTS; Potency, µM, without a hit: max response, negative = inhibition, most hits filed as inhibitors; 3.5% of 310,000 active; active = well fitted inhibition curve with a large enough effect; inconclusive = small, poorly fitted or top-dose-only effect, or another doubt; inactive = no such curve, though single readings can be large or run the other way;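 note: the enzyme is Sfp with the accession as filed and its product quenches rhodamine fluorescence; potency is the fitted concentration of half-maximal effect; 0% = enzyme reaction without inhibitor and -100% = no enzyme wells; top concentration of the series not given in the record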
#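 Fluorescence-quenching assay with 15 nM Sfp, 5 uM rhodamine-CoA and 12.5 uM BHQ-2-labelled ybbR peptide in pH 7.6 Hepes/MgCl2 buffer. Enzyme was pre-incubated with compound for 15 min at room temperature. Rate was taken from the 30-min fluorescence change (525/598 nm).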
# TRPML1 ag: qHTS for Agonists of the Human Mucolipin Transient Receptor Potential 1 (TRPML1); AID 624414, 2012; TRPML1-expressing cells, Ca2+ dye fluorescence, FDSS; host cell line not named in the record; reference of the full effect not given here; 0.12% of 410,000 active; activation, % (no concentration beside the values); in the data active = activation above about 50%; inconclusive = about 30% to 50%; inactive = below about 30%; note: 0% is about no effect; the text of the record puts the active cut at 80%
#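 Calcium fluorescence on an FDSS kinetic reader gave the read-out. Tet-induced TRPML1-DL cells were plated overnight, dye-loaded (Ca8 with quencher, 45-90 min, room temperature, dark), then read 110 s after compound addition, and again 110 s after 4uM final 54-4 (EC80).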
# Menin MLL FP FL: qHTS Assay for Inhibitors Targeting the Menin-MLL Interaction in MLL Related Leukemias: Competition With Fluorescein Labeled MLL-derived Peptide | FP activity change, % at 61.4 µM | Fluorescence polarization, fluorescein-MLL peptide displacement from menin | 290,000 tested, under 10 active | AID 1766, 2009; inconclusive = falling polarisation curve, or a change in total fluorescence; inactive = total fluorescence flat and polarisation flat or rising; no compound was filed as active; the % refers to the polarisation; negative = inhibition;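 note: % of control where 0% means no effect; inhibitors lower the polarisation; unlabelled MLL peptide was the positive control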
# TRPML1 inh: qHTS for Inhibitors of the Human Mucolipin Transient Receptor Potential 1 (TRPML1) | Mucolipin-1 (Homo sapiens), Q9GZU1 | TRPML1-inducible cells, Ca2+ dye fluorescence, FDSS; active compounds read low; inhibition of EC80 agonist-evoked calcium signal | activity change, negative = inhibition, % (test concentration not listed) | 0.02% of 390,000 active | AID 624415, 2012; in the data active means activity change below about -50%; inconclusive means about -30% to -50%; inactive means above about -30%;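 note: stimulus is agonist 54-4 at its EC80 concentration; % is set by controls: 0 for no effect and ±100 for the full control effect; compound concentration not given in the record; the text of the record puts the active cut at -80%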
#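 TRPML1-DL cells, Tet-induced overnight (~16 h, 37 °C) at 1,500 cells/well, were loaded with Ca8 no-wash dye plus quencher for 45-90 min at room temperature. Compounds were pinned during FDSS kinetic reading; agonist 54-4 at EC80 (4 uM final) then added.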
# ClpP mod: qHTS Assay for Activators of ClpP; Potency, µM (top dose mostly 57.5 µM), for inactives: at the highest dose activity change, negative = active; AID 651965, 2013; purified B. subtilis ClpP, FRET peptide cleavage, 20 min; 1.9% of 340,000 active; ATP-dependent Clp protease proteolytic subunit (Bacillus subtilis (strain 168)), P80244; active = well fitted falling curve with a large enough effect; inconclusive = small, poorly fitted or top-dose-only effect; inactive = no such curve, though single readings can be large or run the other way; note: potency is the fitted concentration of half-maximal effect; the source files actives as falling curves though it sought activators and does not explain the sign; nearly all actives have a fitted effect of over 65% in size; many hits overshoot -100%
# Target sequence (P80244 whole entry, looked up): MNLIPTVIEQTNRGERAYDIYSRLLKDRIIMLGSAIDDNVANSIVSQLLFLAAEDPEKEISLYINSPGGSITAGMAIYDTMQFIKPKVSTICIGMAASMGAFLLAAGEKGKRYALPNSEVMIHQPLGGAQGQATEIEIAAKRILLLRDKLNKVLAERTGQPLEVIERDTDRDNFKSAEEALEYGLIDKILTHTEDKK
#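 ClpP 10 microg/mL final, pH 8 Tris/KCl buffer with BSA, glycerol, Tween-20; compound pinned in; FRET-FV substrate; RT 20 min; Ex320/Em430; ΔFRET vs ADEP 5.8 microM, DMSO, no enzyme.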
# TRPV1 potentiator: HTS Assay for Compounds that Act as Potentiators of the Vanilloid Receptor 1. Transient receptor potential cation channel subfamily V member 1 (Homo sapiens), Q8NER1. TRPV1-expressing cells, Fluo-8 calcium influx, capsaicin EC20 potentiation; host cell line not named in the record; control for the full effect not named in the record. potentiation, % at 8.33 µM. 0.02% of 320,000 active; active means potentiation above 80%; inconclusive means 30% to 80%; inactive means below 30%; note: 0% is about no effect
# Target sequence (Q8NER1 whole entry, looked up): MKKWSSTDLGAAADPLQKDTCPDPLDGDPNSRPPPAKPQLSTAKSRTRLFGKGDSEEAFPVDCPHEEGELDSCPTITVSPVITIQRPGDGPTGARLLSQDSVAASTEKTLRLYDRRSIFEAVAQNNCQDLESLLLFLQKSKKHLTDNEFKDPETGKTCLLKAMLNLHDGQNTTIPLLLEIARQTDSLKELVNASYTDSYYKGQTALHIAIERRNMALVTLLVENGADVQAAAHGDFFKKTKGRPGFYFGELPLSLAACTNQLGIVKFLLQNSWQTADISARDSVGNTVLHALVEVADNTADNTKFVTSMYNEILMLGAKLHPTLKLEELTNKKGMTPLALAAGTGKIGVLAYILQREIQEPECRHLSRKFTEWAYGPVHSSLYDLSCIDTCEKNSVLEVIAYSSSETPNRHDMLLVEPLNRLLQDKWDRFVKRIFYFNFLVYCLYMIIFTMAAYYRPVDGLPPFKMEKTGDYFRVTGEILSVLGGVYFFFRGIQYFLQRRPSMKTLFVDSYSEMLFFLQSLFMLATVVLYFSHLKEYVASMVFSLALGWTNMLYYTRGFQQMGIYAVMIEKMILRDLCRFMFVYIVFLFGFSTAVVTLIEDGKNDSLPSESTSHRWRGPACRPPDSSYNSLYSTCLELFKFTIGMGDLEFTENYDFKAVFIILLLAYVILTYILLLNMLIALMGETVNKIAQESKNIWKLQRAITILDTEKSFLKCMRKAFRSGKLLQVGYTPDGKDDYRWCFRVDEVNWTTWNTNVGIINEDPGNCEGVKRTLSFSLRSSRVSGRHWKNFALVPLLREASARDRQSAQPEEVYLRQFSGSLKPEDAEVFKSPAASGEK
#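 TRPV1-expressing cells were cultured overnight at 35.5C and loaded with Fluo-8 calcium dye for 40 to 90 min at room temperature. After a 10 s baseline, compound was added and calcium influx was read kinetically for 3 min (ex 480/em 520 nm).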
# PINK1 expr mod: A Quantitative High throughput Screen to Identify Chemical Modulators of PINK1 Expression. PINK1 immunofluorescence, high-content cytometry, 24 h. AID 624263, 2012. Potency, µM (doses to about 76.6 µM), for inactives: top-dose activation (PINK1 increase), usual class: activators. 0.2% of 410,000 active; active = well fitted activation curve with a large enough effect; inconclusive = small, poorly fitted or top-dose-only effect; inactive = flat fitted curve, though single readings scatter; cell line not stated here;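 note: potency is the fitted concentration of half-maximal effect; % of control where 0% means no effect; nearly all actives have a fitted effect of over 65% in size; a mitochondrial uncoupler was the plate control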
#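 Stable cell line treated 24 h with compounds at 5 concentrations (CCCP controls), then fixed and immunostained for PINK1 plus nuclear and cell stains; PINK1 immunofluorescence quantified by laser-scanning microplate cytometry.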
# * hit, by the source's call; ? = inconclusive; . = not tested or not shown; & = joins results of further samples; [ ] = another dose, or the depositor's remark. Not a hit list (roughly 4.4% active in at least one column).
SMILES,Sfp inh,TRPML1 ag,Menin MLL FP FL,TRPML1 inh,ClpP mod,TRPV1 potentiator,PINK1 expr mod
CC(C)(C)NC(=O)/C=C/c1cccs1,5%,-0.6,1.7,8,1.2%,-6,2.1%
O=C(O)CCNC(=O)OCC1c2ccccc2-c2ccccc21,10%,.,0.5,.,-4.7%,19,1.4%
Cc1ccc(NC(=O)CCCc2nc3ccccc3c(=O)[nH]2)c(Cl)c1,.,-2.0,.,-3,-2.8%,?,1.2%
NNC(=O)c1ccc(Cn2cc(Cl)cn2)o1,-4%,4.8,1.3,15,0.3%,0,0.1%
CCOc1cccc(N2CCN(CCNC(=O)Nc3ccc(C)cc3)CC2)c1C,9%,-0.1,-1.1,3,1.4%,-10,3.4%
Cc1ccc(S(=O)(=O)N2CCC(C(=O)OCC(=O)N(Cc3ccccc3)C(C)C)CC2)cc1C,.,-0.7,.,-18,-1.4%,.,0.3%
Cc1nc2cc(C(=O)OCC(=O)NC34CC5CC(CC(C5)C3)C4)ccc2n1-c1ccccc1,-15%,-1.1,11,3,23%,11,?
O=C(CSc1cccc[n+]1[O-])Nc1ccc(N2CCOCC2)cc1,11%,.,-0.3,.,.,4,.
CCN(CC)S(=O)(=O)c1cccc(C(=O)/C=C2/N(C)c3ccccc3C2(C)C)c1,9%,-0.1,11,27,.,-2,0.8%
FC(F)(F)c1ccccc1-c1cncnc1NCc1cccs1,-3%,.,1.9,.,.,.,-0.1%
CCOc1ccc(CCNC(=O)COC(=O)c2n[nH]c3ccccc23)cc1OCC,.,-0.7,.,-4,-6.9%,.,-1.0%
CCc1ccccc1NC(=O)C1CCCN(S(=O)(=O)c2ccc3[nH]c(=O)ccc3c2)C1 (stereo not given),.,1.3,.,2,-12%,.,12%
CCOc1ccc(NC(=O)Cn2c(=O)cc(C)c3c(C)nn(-c4cccc(Cl)c4C)c32)cc1,.,-0.4,.,-20,1.0%,.,-0.5%
N#Cc1c(-c2ccccc2)c(-c2ccccc2)nn(CC(=O)NNC(=O)Nc2ccc(Cl)cc2)c1=O,5%,1.8,6.3,7,.,23,-1.5%
CCOC(=O)CN1C(=O)N[C@@H](c2ccc(Br)cc2)C(C(=O)OC)=C1C,29%&16%,0.3,-1.9[11.7 µM],11,-1.0%,-29,2.3%
CCSc1nnc(NC(=O)c2ccccn2)s1,13%,0.1,7.6,3,-0.1%,.,-1.6%
O=S(=O)(c1cccs1)N1CCN(CC(O)COc2cc(Cl)ccc2Cl)CC1 (stereo not given),-24%,2.2,-0.1,7,0.3%,-10,-1.2%
O=c1c2c(nc3nc(NCc4cccc(Cl)c4)[nH]n13)CCC2,3%,-0.9,-1.8,6,.,3,4.2%
Cc1cccc(C(=O)NC(=S)Nc2ccc3[nH]c(=O)[nH]c3c2)c1,0%,0.6,0.2,-14,.,-9,3.1%
O=C(Nc1cccc(-c2nn[nH]n2)c1)c1csc2c1CCCC2,-7%,0.1,.,-5,-0.5%,-4,4.3%
Cn1ncc2c(NNC(=O)Cc3ccccc3)ncnc21,3%,0.4,-1.1,9,-0.8%,-4,-1.5%
COc1ccccc1CNC(=O)C1CCCN(c2nnc(C)c3c(C)n(-c4ccccc4)nc23)C1 (stereo not given),.,1.7,.,10,4.6%,.,0.3%
COc1ccc2[nH]cc(C(=O)CN(C)CCc3ccc(OC)c(OC)c3)c2c1,-29%,-0.9,1.3,12,1.4%,-14,-2.4%
CCOC(=O)Cn1c(=O)cc(-c2ccccc2)c2c(C)nn(C)c21,.,1.9,.,-1,4.1%,.,1.6%
CCOc1cc(C(=O)OCC(=O)NCc2ccco2)cc(OCC)c1OCC,-11%,0.5,2.5,56,-3.8%,-4,-1.2%

# Look-ups from the list.
# Entry for Cc1ccc(NC(=O)CCCc2nc3ccccc3c(=O)[nH]2)c(Cl)c1 under TRPML1 ag: -2.0
# Entry for CCOc1ccc(NC(=O)Cn2c(=O)cc(C)c3c(C)nn(-c4cccc(Cl)c4C)c32)cc1 under TRPML1 ag: -0.4

# The list goes on:
SMILES,Sfp inh,TRPML1 ag,Menin MLL FP FL,TRPML1 inh,ClpP mod,TRPV1 potentiator,PINK1 expr mod
C=CCNC(=O)c1cc(Cl)cc(Cl)c1,11%,-0.3,-0.1,10,.,4,-0.1%
CC(NC(=O)c1ccccc1)C(=O)N/N=C/c1ccc(O)cc1 (stereo not given),15%,0.6,0.3,2,-11%,?,-0.5%
Cc1cccc(NC(=O)/C=C/c2ccc(Cl)cc2)n1,-5%,1.6,2.0,47,-0.3%,-9,12%
O=C1NC(c2ccccc2)=NC1(NS(=O)(=O)c1ccccc1)C(F)(F)F (stereo not given),-5%,0.5,10,-15,-0.5%,-6,-2.5%[38.3 µM]
O=C(NCC(c1cccnc1)N1CCN(c2ccccc2F)CC1)c1ccco1 (stereo not given),9%,-0.2,1.6,33,0.3%,-1,1.2%
COc1ccc(S(=O)(=O)N(C)Cc2nc(-c3cccc(C)c3)no2)cc1,.,4.7,.,-4,-1.3%,.,-1.2%
COc1ccc(CSc2nncn2C)cc1[N+](=O)[O-],3%,-0.6,-0.8,3,.,21,-0.8%
N#C/C(=C\c1cccnc1)C(=O)Nc1ccccc1[N+](=O)[O-],9%,-0.2,.,-1,-0.1%,-18,2.4%
CCCS(=O)(=O)N1CCN=C1SCc1cccc(C)c1,13%,-0.7,-1.0,2,.,6,-1.1%
O=C(NCCS(=O)(=O)N1CCN(c2ccccc2)CC1)C1CC1,.,0.2,.,-12,-2.4%,-14,?
O=C(O)C(Cc1ccccc1)N1C(=O)/C(=C/c2ccccc2)SC1=S (stereo not given),-2%,-0.6,2.9,-3,-1.0%,2,-0.3%
COc1cc(NC(=O)CNC(=O)Cn2c(C)cc3ccccc3c2=O)cc(OC)c1OC,13%,-0.6,-6.8,10,.,-17,3.5%
Cc1ccc(C)c(NC(=S)c2ccc3ccccc3n2)c1,10%,0.8,-0.6,23,0.8%,0,11%
O=C(COC(=O)c1cncc(Br)c1)NCc1cccs1,.,-0.9,.,-1,-0.8%,.,2.9%
Cc1nc(N)nc(Nc2ccc(Cl)cc2)c1Br,11%,-0.7,4.2,1,-3.3%,-37,-7.0%[38.3 µM]
O=C(COc1cc2oc(=O)c3c(c2cc1Cl)CCCC3)NCc1cccnc1,8%,-1.0,.,4,2.9%,24,-0.1%
CCN(C(=O)c1ccc(Cl)c([N+](=O)[O-])c1)c1ccccc1,-23%,1.8,0.4,15,.,6,1.6%
CCOC(=O)c1c(C)[nH]c(C(=O)COC(=O)C(C)N2C(=O)C3CCCCC3C2=O)c1C (stereo not given),-4%,0.8,3.4,20,0.7%,-1,-2.8%[38.3 µM]
O=C(CCCCCNC(=S)Nc1ccc(Cl)cc1)C[N+](=O)[O-],-6%,-0.2,0.1,20,.,0,2.9%
c1ccc(-n2nnnc2-c2cccnc2)cc1,9%,0.2,5.5,-17,.,6,1.3%
Cc1ccsc1C(=O)N/N=C/C=C/c1ccccc1[N+](=O)[O-],-15%,0.5,-0.7,-9,-0.8%,-18,1.0%
COC(=O)c1ccc(NC(=O)C2CCCO2)cc1 (stereo not given),5%,0.0,-1.6,-7,0.6%,-12,-0.7%
O=C(Cc1cccc2ccccc12)NC(=S)Nc1cccc(C(=O)O)c1,2%,-0.1,-2.7,17,.,3,0.2%
CCCCN1C(=O)C(=O)N(CC(=O)Nc2sc(C)c(C)c2C(=O)OC)C1=O,.,-1.5,.,-5,-6.0%,18,0.6%
FC(F)C(F)(F)c1cc(-c2ccccc2)n[nH]1,0%,3.5,-4.7,17,-15%,5,-0.2%
# The list continues:
SMILES,Sfp inh,TRPML1 ag,Menin MLL FP FL,TRPML1 inh,ClpP mod,TRPV1 potentiator,PINK1 expr mod
CCn1cc(C(=O)O)c(=O)c2cc(F)c(N/N=C/c3ccccc3[N+](=O)[O-])cc21,-11%,0.4,3.2,12,-2.4%,5,40µM*
CCOC(=O)Cc1csc(NC(=O)Cc2ccc(C)cc2)n1,12%,-0.1,1.5,14,.,-4,1.3%
Cc1ncc(CN=Cc2ccc(Cl)cc2)c(N)n1,11%,2.8,-0.5,-10,0.3%,9,1.0%
Nc1ccccc1SCC1CSc2nc3ccccc3c(=O)n21 (stereo not given),18%,0.5,-0.4,-30,0.8%,18,-0.3%
COc1ccc(N=Cc2ccc(CNS(=O)(=O)c3ccc(Cl)cc3)o2)cc1,22%,1.8,5.7,8,-2.0%,5,0.8%
Cc1cccc(C)c1NC(=O)C(c1ccccc1OC(F)(F)F)N1CCN(C/C=C/c2ccccc2)CC1 (stereo not given),.,-0.1,.,.,2.3%,.,11%
COC(=O)c1ccccc1N=Nc1c(C)n[nH]c1C,26%,-1.2,-5.3,-1,1.8%,-22,-0.2%
O=C(Nc1ccccc1C(=O)NCCCN1CCOCC1)c1cccc([N+](=O)[O-])c1,19%,-0.1,.,-6,1.6%,0,-1.8%
COc1ccccc1CNC(=O)CCc1c(C)nc2cc(-c3ccccc3OC)nn2c1C,6%,0.0&-0.4,4.2,18&4,3.5%,6,0.7%&0.6%
CCOC(=O)c1c(C)[nH]c(C(=O)NNC(=O)c2ccc(C(C)(C)C)cc2)c1C,12%,3.1,5.5,-12,1.8%,-1,-2.3%
CCN(C(=O)CSc1ccc2ccccc2c1)C1CCS(=O)(=O)C1 (stereo not given),16%,0.6,4.7,-18,?,2,-0.5%
COCCN(CCOC)Cc1cc(=O)oc2ccc3ccccc3c12,.,-0.1,.,9,?,.,0.0%
O=C(NC1CCN(S(=O)(=O)c2ccc(F)cc2)CC1)c1ccco1,-3%,0.8,.,-9,.,0,5.9%
Cc1cccc(OCC(=O)Nc2cc(NC(=O)COc3cccc(C)c3C)cc(C(=O)O)c2)c1C,5%,-0.7,-0.2,-14,-0.1%,-11,-1.0%
CC(=O)c1cc2c(cc1C)CCCC2(C)C,.,0.3,.,14,.,.,9.2%
